Compound activity (PubChem)
HIV TAR-Tat – HIV-1 TAR-Tat binding disruption | HIV-1 TAR RNA, Tat peptide displacement FRET; stronger effect = higher value | z-score (no concentration beside the values) | hit rate 0.6% among 100,000;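 note: score is relative to mean and SD of negative controls; some compounds called inactive have numbers as strong as hits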
CDC25B CDK2 inh – human CDC25B-CDK2/CyclinA binding inhibition. P30305+P24941. HTRF CDC25B-CDK2/CyclinA binding, anti-His/anti-Flag; stronger effect = higher value. AID 1259370. z-score (test concentration not listed). hit rate 0.72% among 94,000;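 note: score is relative to mean and SD of negative controls; strong numbers were not always called active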
Starred values were filed as active, the others as inactive; / = no result given; & = joins results of further samples.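 Rule for the calls: active = z-score from 3 up in half or more of its runs; inactive = the rest.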 These rows are one share of the data. The share of hits here may be higher or lower than overall.

SMILES	HIV TAR-Tat	CDC25B CDK2 inh
CCOC(=O)c1noc2nc(C)nc(Nc3cccc(F)c3)c12	0.78	/
Nc1nccs1	2.6	/
CCC[C@H](N[C@@H](C)C(=O)N1[C@H](C(=O)O)C[C@@H]2CCCC[C@@H]21)C(=O)OCC	1.3	/
C=CC1=C(C(=O)O)N2C(=O)[C@@H](NC(=O)C(=NO)c3csc(N)n3)[C@H]2SC1	33*	/
O=C1NC(=O)[C@@]2(CCOc3ccc(F)cc32)N1	/	-0.71
CCc1nn(CC(=O)NCCc2c[nH]c3ccccc23)c(=O)c2cc3sccc3n12	-0.82	-0.3
Cc1nnc(NS(=O)(=O)c2ccc(N)cc2)s1	0.06	/
NS(=O)(=O)c1cc2c(cc1C(F)(F)F)NC(Cc1ccccc1)NS2(=O)=O (stereo not drawn)	0.47	/
CCCOc1ccccc1-c1nc2n[nH]nc2c(=O)[nH]1	0.98	-0.47
CC[C@]1(O)CC2CN(CCc3c([nH]c4ccccc34)[C@@](C(=O)OC)(c3cc4c(cc3OC)N(C)[C@H]3[C@@](O)(C(=O)OC)[C@H](OC(C)=O)[C@]5(CC)C=CCN6CC[C@]43[C@@H]65)C2)C1 (stereo partly drawn)	-1	/
O=C1NCC2(CCN(CCc3ccccc3)CC2)O1	2.4	-0.39
COc1cc2nc(N3CCN(C(=O)C4COc5ccccc5O4)CC3)nc(N)c2cc1OC (stereo not drawn)	2.1	-2.6&-3.3
COc1nc(C)nc(Cl)c1NC1=NCCN1	-1.6	-0.15
CC1(C)O[C@H]2CC(=O)OC[C@]23[C@H]2CC[C@@]4(C)[C@H](c5ccoc5)OC(=O)C5O[C@]54[C@]2(C)C(=O)C[C@@H]13 (stereo partly drawn)	-0.99	/
N#CC1=C(N)Oc2c(oc(CO)cc2=O)C1c1ccc(OCc2ccccc2)cc1 (stereo not drawn)	/	0.04

Complete entries, looked up by structure. Screens in order: HIV TAR-Tat, CDC25B CDK2 inh
CC1(C)O[C@H]2CC(=O)OC[C@]23[C@H]2CC[C@@]4(C)[C@H](c5ccoc5)OC(=O)C5O[C@]54[C@]2(C)C(=O)C[C@@H]13 (stereo partly drawn) as listed: -0.99, /
CCOC(=O)c1noc2nc(C)nc(Nc3cccc(F)c3)c12 as listed: 0.78, /

In the list so far, 3 contain an NH in an aromatic ring:
SMILES	HIV TAR-Tat	CDC25B CDK2 inh
CCc1nn(CC(=O)NCCc2c[nH]c3ccccc23)c(=O)c2cc3sccc3n12	-0.82	-0.3
CCCOc1ccccc1-c1nc2n[nH]nc2c(=O)[nH]1	0.98	-0.47
CC[C@]1(O)CC2CN(CCc3c([nH]c4ccccc34)[C@@](C(=O)OC)(c3cc4c(cc3OC)N(C)[C@H]3[C@@](O)(C(=O)OC)[C@H](OC(C)=O)[C@]5(CC)C=CCN6CC[C@]43[C@@H]65)C2)C1 (stereo partly drawn)	-1	/

Reprinted at random: 2 entries already listed.
SMILES	HIV TAR-Tat	CDC25B CDK2 inh
O=C1NCC2(CCN(CCc3ccccc3)CC2)O1	2.4	-0.39
CCOC(=O)c1noc2nc(C)nc(Nc3cccc(F)c3)c12	0.78	/

Remaining list, next part:
SMILES	HIV TAR-Tat	CDC25B CDK2 inh
O=C(O)[C@@H]1[C@H]2C[C@H]3c4[nH]c5ccccc5c4CCN3C[C@@H]2CC[C@@H]1O	0.25	/
O=C(O)CN1C(=O)c2cccc3cccc(c23)C1=O	-1	0.55
O=C(NCc1c(F)cccc1F)C(=O)NCc1n[nH]c(=O)c2ccccc12	1.4	/
CC(Oc1c(Cl)cccc1Cl)C1=NCCN1 (stereo not drawn)	0.5	/
Nc1cc(-c2ccncc2)c[nH]c1=O	-1.3	/
CCN(CC)CCCCNc1ncc2cc(-c3c(Cl)cccc3Cl)c(NC(=O)NC(C)(C)C)nc2n1	/	-0.05
Cc1onc(-c2ccccc2Cl)c1C(=O)N[C@@H]1C(=O)N2[C@@H]1SC(C)(C)[C@@H]2C(=O)O	0.79	/
c1ccc2c(CC3=NCCN3)cccc2c1	1.1	/
CCCC(=O)O	-0.61	/
O=C(Cn1ccnc1[N+](=O)[O-])NCCO	0.09	/
COc1ccc(CN(CCN(C)C)c2ccccn2)cc1	1.8	-0.1
CN(C)C/C=C(/c1ccc(Br)cc1)c1cccnc1	/	-1.3
CC(=O)NCCCCCC(=O)O	3.1	/
CN1CCC(=C2c3ccccc3CCc3sccc32)CC1	0.19	/
COC(=O)C1=CO[C@@H](O[C@@H]2O[C@H](CO)[C@@H](O)[C@H](O)[C@H]2O)[C@@H]2[C@@H](C)[C@@H](O)C[C@H]12	1.2	/
CS(=O)(=O)c1ccc(-n2nc(C(F)(F)F)cc2-c2ccc(F)cc2)cc1	/	0.8
CC1=NN(c2ccccc2)C(=O)C1	1.3	/
Cc1coc2c1C(=O)C(=O)c1c-2ccc2c1CCCC2(C)C	1.4&1.6	/
Cc1ccc(S(=O)(=O)Nc2cc(-c3cn4ccccc4n3)ccc2C)cc1	0.26	-0.34
C=CCSCC=C	15*	/
CCOC(=O)c1nc(N2CCN(C(=O)c3ccco3)CC2)c2ccccc2n1	2	/
CC(=O)O[C@]1(C(C)=O)CC[C@H]2[C@@H]3C=C(Cl)C4=CC(=O)[C@@H]5C[C@@H]5[C@]4(C)[C@H]3CC[C@@]21C	/	-0.87
Cc1onc(-c2ccccc2Cl)c1C(=O)NC1C(=O)N2C1SC(C)(C)C2C(=O)O (stereo not drawn)	2.5	-0.66
CN(C)CCCN1c2ccccc2Sc2ccccc21	1.3	-1.9
C=CC(C)(O)CC/C=C(\C)CCC=C(C)C (stereo not drawn)	0.95	/
CCc1noc2nc(C)nc(N3CCCC(C(=O)NCCN4CCCC4)C3)c12 (stereo not drawn)	1.1	/
O=C1N(c2ccccc2)c2ccccc2C1(Cc1ccncc1)Cc1ccncc1	0.7	0.11
COc1ccccc1OCC(O)COC(N)=O (stereo not drawn)	3.7	/
Cc1c(C(=O)O)c(O)cc2c1C(=O)c1c(O)c([C@H]3O[C@H](CO)[C@@H](O)[C@H](O)[C@H]3O)c(O)c(O)c1C2=O	8.5*	/

Three consecutive compounds from above, for reference:
SMILES	HIV TAR-Tat	CDC25B CDK2 inh
O=C1N(c2ccccc2)c2ccccc2C1(Cc1ccncc1)Cc1ccncc1	0.7	0.11
COc1ccccc1OCC(O)COC(N)=O (stereo not drawn)	3.7	/
Cc1c(C(=O)O)c(O)cc2c1C(=O)c1c(O)c([C@H]3O[C@H](CO)[C@@H](O)[C@H](O)[C@H]3O)c(O)c(O)c1C2=O	8.5*	/
